# Compound activity as filed in PubChem BioAssay.
# Bfl-1 A1 inh: caspase 3/7 activation in MEF A1-2A-BIM cells, primary screen, A1 inhibitor project, cell-based, luminescence, HTS. actives 0.066% (n = 330,000). caspase activation, % (concentration not given with the values). Caspase-Glo 3/7 luminescence, 3 h; percent of clofoctol response, vehicle zero;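 active = over half of replicate activation scores above 10%, or exactly half above 10 with the replicate mean above 10; inconclusive = replicate mean below 10 yet half the replicates above 10; inactive = over half of replicates below 10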;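 also: wells of about 30 µL received 50 nL stock; many hits fall short of the cut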
# Vif TR-FRET: inhibitors of Vif binding to APOBEC3G peptide, primary screen, biochemical, TR-FRET, GST-Vif 1-94, biotin-A3G peptide, dose response retest (AID 1117319); Virion infectivity factor (Human immunodeficiency virus type 1 group M subtype B (isolate …; TR-FRET GST-Vif / biotin-A3G peptide binding; higher % means a stronger effect; test concentration not given here; strong numbers were not always called active; one-dose inhibition, %; IC50 in µM for titrated hits; actives 0.57% (n = 260,000);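 active = above the screen mean plus three standard deviations and confirmed in dose response; inconclusive = results disagree or hit not tested in dose response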;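 also: Vif residues 1-94 fused to GST binding biotinylated APOBEC3G peptide 110-148; 0% = full assay without inhibitor and 100% = GST in place of GST-Vif; retest series ran down from 100 µM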
# T cruzi inh: inhibitors of intracellular T. cruzi growth, primary screen, luminescence, NIH3T3 host cells. inhibition, % (test concentration not listed). T. cruzi beta-gal in NIH3T3, 90 h. actives 1.4% (n = 300,000);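 active = mean inhibition across valid replicates above about 55%, limit read from the data; inconclusive = mean below that limit but half or more replicates reach it; inactive = mean below it, under half of replicates reach it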;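 also: signal also drops with host cell toxicity which is not excluded here; 0% = plate median of DMSO wells and 100% = zero luminescence signal; higher percent means less beta-gal luminescence so fewer parasites; stock transfer was 50 nL into about 50 µL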
# LANA-H2B inh: blockers of LANA interaction with H2A/H2B – biochemical, FP readout, HTS, primary screen; Protein LANA1 (Human herpesvirus 8 type P (isolate GK18)), Q9QR71; inhibition, % (concentration not given with the values); actives 0.6% (n = 320,000); cell-free LANA-H2A/H2B peptide, fluorescence polarization; in the data active = inhibition mostly above about 10%, no sharp cut-off; inactive = mostly below about 6.7%;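 also: stock transfer was 7.5 nL into about 10 µL; 0% = median of vehicle wells and 100% = median of positive control wells; one replicate is shown; the record names a cut of 25% in any replicate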
# Beta cell apopt: inhibitors of cytokine-induced beta cell apoptosis, primary screen, luminescence; actives 0.8% (n = 300,000); INS-1E cytokine-induced death, ATP luminescence, 48 h; percent of positive-control rescue, neutral wells zero; AID 435005, 2010; protection from apoptosis, % (concentration not given with the values);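 active = all replicates at 75% or more, or half of them and the mean; inconclusive = half reach 75% but not the mean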;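 also: 0% = cytokine-treated negative control wells and 100% = positive control rescue; higher means more ATP so stronger rescue from cytokine killing; wells of about 40 µL received 100 nL stock; the first replicate is given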
# AF4-AF9 inh: inhibitors of AF4 peptide binding to AF9, primary screen, biochemical, AlphaScreen, biotin-AF4 peptide, FLAG-AF9, single point; Protein AF-9 (Homo sapiens), P42568; inhibition, % at 10 µM; actives 0.47% (n = 350,000); AID 651704, 2012;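 active = every replicate reaching a set inhibition limit, whatever the replicate mean, cut at about 25% in these data; inconclusive = mean inhibition reaches that limit but some replicates miss it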;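 also: 0% = plate neutral control median and 100% = total signal loss; the record names both 10 and 1 µM as test concentration; the first replicate is given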
# Target sequence (P42568 whole entry, looked up): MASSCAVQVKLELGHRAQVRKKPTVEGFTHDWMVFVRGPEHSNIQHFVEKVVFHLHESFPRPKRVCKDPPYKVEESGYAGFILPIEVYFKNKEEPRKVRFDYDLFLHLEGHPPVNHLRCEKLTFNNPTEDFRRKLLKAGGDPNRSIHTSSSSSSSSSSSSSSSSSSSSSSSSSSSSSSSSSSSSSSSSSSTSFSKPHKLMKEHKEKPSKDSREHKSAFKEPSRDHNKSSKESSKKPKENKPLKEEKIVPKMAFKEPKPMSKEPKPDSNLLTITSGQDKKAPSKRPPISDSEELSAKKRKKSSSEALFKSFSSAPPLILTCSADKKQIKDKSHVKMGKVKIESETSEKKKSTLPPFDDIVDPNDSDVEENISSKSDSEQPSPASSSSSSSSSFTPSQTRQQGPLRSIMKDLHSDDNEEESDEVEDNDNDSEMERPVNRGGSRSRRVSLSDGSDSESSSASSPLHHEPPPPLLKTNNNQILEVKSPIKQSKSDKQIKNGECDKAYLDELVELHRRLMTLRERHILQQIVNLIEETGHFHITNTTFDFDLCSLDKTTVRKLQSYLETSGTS
# Calb FLC: C. albicans growth inhibition with fluconazole, primary screen, CaCi-2 strain, Alamar Blue fluorescence; actives 0.57% (n = 300,000); C. albicans CaCi-2 (fluconazole-resistant clinical isolate) + fluconazole, 48 h; growth inhibition, % (no concentration beside the values); AID 1979, 2009;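 active = most replicates above 75%; inconclusive = exactly half above 75%; inactive = most below 75%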;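 also: all wells also contain fluconazole at 8 µg/ml as a sub-toxic cotreatment; 0% = median of DMSO wells and 100% = median of geldanamycin control wells; wells of about 8 µL received 7.5 nL stock; the first replicate is given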
# RanGTP-Impb inh: inhibitors of RanGTP-importin-beta interaction, primary screen, biochemical, FRET, CFP-Ran, YFP-importin-beta, homogeneous; AID 2216, 2009; cell-free CFP-Ran/YFP-importin-beta FRET ratio; Ran GTPase (GTP-bound) - importin-beta complex; inhibition, % (test concentration not listed); actives 1.1% (n = 300,000);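 active = most replicates above 15%; inconclusive = exactly half above 15%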;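 also: 0% = DMSO wells and 100% = Ran loaded with GDP instead of GTP; wells of about 40 µL received 100 nL stock; the first replicate is given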
# Numbers without * were called inactive; ? = inconclusive; . = not tested or not shown.
Structure	LANA-H2B inh	RanGTP-Impb inh	Calb FLC	Bfl-1 A1 inh	T cruzi inh	Beta cell apopt	AF4-AF9 inh	Vif TR-FRET
CS(=O)(=O)Nc1ccc(C(=O)CC(=O)Nc2ccc([N+](=O)[O-])cc2)cc1	-2.1	2.1	2	0.3	15	-2	5.7	2%
Cc1ccc(C(=O)O)cc1NS(=O)(=O)c1ccc2ccccc2c1	-0.8	-3.7	-3	1.0	-1	-5	-1.0	-8%
Cc1cc(NC(=O)CCS(=O)(=O)c2nc(-c3ccccc3)cc(C(F)(F)F)n2)no1	0.7	.	.	1.8	.	-11	.	3%
Cc1ccsc1C(=O)NNC(=O)c1csc(N2CCOCC2)n1	2.3	-0.4	4	0.1	-6	-1	5.4	.
CCSc1nc(N2CCOCC2)c2ccccc2n1	-1.8	0.1	9	0.0	2	-9	.	21%
O=C(Nc1ccc(N2CCOCC2)cc1)c1ccc2nc(-c3ccco3)c(-c3ccco3)nc2c1	.	?	5	.	4	.	.	10%
CCN(CC(=O)NCC(=O)Nc1ccc(Br)cc1C)Cc1ccccc1	5.0	-0.9	1	-0.2	-12	2	0.8	-4%
COC(=O)c1ccc(NC(=O)CN(C)Cc2cccc(F)c2)cc1	-2.0	-2.9	?	0.4	-13	-8	-3.3	-5%
CCc1cccc(OCCn2ccnc2)c1	.	-0.2	-27	-0.2	-12	-7	.	-2%
Cc1ccc(Nc2ccc(C(N)=O)cc2[N+](=O)[O-])cc1	1.8	-4.9	-14	0.6	0	-14	.	19%
CCOc1ccccc1N1CCN(CC(=O)Nc2ncc(C)s2)CC1	-1.2	3.0	3	0.7	-11	1	4.3	.
O=C(CN1C(=O)c2ccccc2S1(=O)=O)NC1CCCCCC1	-3.3	-0.9	-5	-0.1	10	.	-4.1	-2%
Nc1nc(SCC(=O)NCc2ccc(F)cc2)[nH]c(=O)c1NC(=O)c1ccc(Cl)cc1	0.0	-0.6	0	-0.5	-5	3	.	?
O=C(c1ccccc1)N1CCC(=O)N(C(CO)Cc2ccccc2)CC1 (stereo not given)	0.6	-1.7	0	-0.3	2	-4	0.6	.
CC(=O)NC(CC(=O)NCC(=O)Nc1ccc(F)c(F)c1)c1ccccc1 (stereo not given)	6.4	4.3	6	-0.3	-4	-5	0.8	-2%
c1ccc(Nc2cccc(Nc3ccccc3)c2)cc1	0.4	7.1	2	0.9	65*	0	.	.
Cc1ccc(NC(=O)CCn2c(=O)c3cccn3c3ccccc32)cc1C	11	?	-15	0.2	24	2	1.0	.
COC(=O)c1sc(-c2ccccc2)cc1NC(C)=O	7.0	-1.3	5	-0.4	-2	-8	6.3	-10%
CSc1nsc(SCC(=O)NCc2ccccc2)n1	-4.6	0.7	17	0.7	-21	-3	3.1	.
Cc1c(OC(C)C(=O)NCc2cccnc2)ccc2c3c(c(=O)oc12)CCCC3 (stereo not given)	1.1	-0.2	-6	1.2	18	.	-11	.
CCOc1ccc(OC(=O)c2cccnc2)cc1	-2.2	7.2	-3	0.1	0	-3	.	15%
O=C(Cn1c(=O)oc2cccnc21)Nc1ccc(C(F)(F)F)cc1	1.2	2.3	-4	0.2	-27	-5	-2.3	-4%
CCOC(=O)C1CCCN(Cc2nc(N)nc(Nc3ccc(C)cc3)n2)C1 (stereo not given)	5.2	2.8	12	0.2	-3	-9	.	10%
CCc1ccc(C2C3=C(CCCC3=O)OC3=C2C(=O)CCC3)cc1	2.4	?	1	0.3	10	-5	0.4	-2%
COc1ccc2c(c1)c1nnc(SCC(=O)N3C(C)CCCC3C)nc1n2C (stereo not given)	0.1	-1.4	5	0.4	27	6	.	3%
COC(=O)[C@@]12CCCCN1[C@H](c1ccc(-c3ccc(Cl)c(Cl)c3)c(OC)c1)[C@H]1C(=O)N(C)C(=O)[C@H]12	-0.8	.	.	0.1	.	16	-0.1	.
Cc1ccc(C(=O)C2=C(O)C(=O)N(c3ncccn3)C2c2ccc(Br)cc2)o1 (stereo not given)	-3.7	21	-3	0.1	-3	-3	.	10%
Cc1ccc(-n2c(Cc3cccn3C)nnc2SCC(=O)NCc2ccc3c(c2)OCO3)cc1	.	-3.3	3	.	16	.	.	20%
COc1cccc(C2CC(c3ccc(F)cc3)Nc3nc(N)nn32)c1 (stereo not given)	-2.6	-3.1	2	-0.4	9	-3	-2.3	3%
C=CCn1cccc(C(=O)Nc2cc(OC)ccc2OC)c1=O	-12	2.2	-16	-2.5	11	0	2.3	5%
COc1cccc(NC(=O)C2CCCN2C(=O)NC2CCCCC2)c1 (stereo not given)	-0.9	2.6	-3	1.2	-8	2	3.0	.
COCCCNC(=O)C(C#N)c1nc2ccccc2nc1N1CCCC1 (stereo not given)	-0.5	54*	4	-0.4	5	1	.	1%
O=C(CSc1nc(-c2ccco2)cc(C(F)(F)F)n1)NN1CCOCC1	0.3	-0.1	-9	0.0	-13	3	-2.4	1%
COC(=O)NCc1cccc(CNC(=O)OC)c1	-4.8	-2.7	-2	-0.4	-23	1	.	?
COc1ccc(-n2c(=O)/c(=C\c3cccs3)s/c2=C(/C#N)C(=O)NCCN2CCOCC2)cc1	2.7	-74	0	-0.2	6	0	-2.4	-5%
Cc1ccc2sc(NNC(=O)C3COc4ccccc4O3)nc2c1C (stereo not given)	-7.0	.	.	0.0	.	6	0.7	17%
COC(=O)c1cccc(NC(=O)Cc2ccccc2[N+](=O)[O-])c1C	-0.7	4.2	-4	0.9	-44	0	-4.1	.
Cc1c(CCC(=O)NCCCC(=O)O)c(=O)oc2cc3oc4c(c3cc12)CCCC4	-2.7	0.2	9	0.7	1	-7	-0.7	-13%
Cn1c(NC(=O)Cc2cccs2)cc(=O)n(C)c1=O	.	2.6	-1	.	-11	.	-2.8	0%
CCOC(=O)c1c(C)oc2cc(Br)c(OCC(N)=O)cc12	-8.8	19*	-5	1.9	8	5	.	4%
COc1ccccc1/C=C/C(=O)NCC(=O)N/N=C/c1ccccc1	-1.9	.	.	-0.9	-7	0	0.1	15%
Cc1ccc(CN(C(=O)COc2ccc(C)c(C)c2)C2CCS(=O)(=O)C2)o1 (stereo not given)	0.9	3.0	7	1.1	3	-3	4.1	-2%
O=C(Nc1cnn(Cc2ccc(Cl)cc2)c1)c1cnccn1	-3.8	-1.2	1	-0.2	-11	-2	.	1%
CC1CCCCN1CCNC(=O)CC1Oc2ccccc2NC1=O (stereo not given)	1.5	3.1	4	0.7	-25	-1	-4.1	-1%
CCOC(=O)c1ccc(NC(=O)c2cc(OC)c(OC)c(OC)c2Br)cc1	3.0	3.0	3	0.8	-8	4	-1.5	.
COc1cc(-c2nc3ccccn3c2NCc2ccccc2)ccc1SC1CCCCC1	-2.3	1.9	29	0.4	61*	16	.	.
CCc1ccc2[nH]c3nc(N/N=C/c4cccc(O)c4)nnc3c2c1	1.0	-0.2	11	-0.1	0	-2	0.2	10%
O=C(c1ccncc1)N1CCN(c2cccc(C(F)(F)F)c2)CC1	-2.9	1.8	-2	1.3	19	0	.	-1%
CC(=O)Nc1ccc(S(=O)(=O)NNC(=O)CCC(=O)Nc2cc(C)ccc2C)cc1	-3.2	?	1	0.1	-6	2	6.0	-1%
O=C(OCCOCCN=C1NS(=O)(=O)c2ccccc21)C1CC(=O)N(c2ccccc2)C1 (stereo not given)	3.6	-0.1	-1	2.2	13	3	.	-6%

# The results go on.
Structure	LANA-H2B inh	RanGTP-Impb inh	Calb FLC	Bfl-1 A1 inh	T cruzi inh	Beta cell apopt	AF4-AF9 inh	Vif TR-FRET
COc1cc(O)c2c(=O)c3c(O[C@H]4O[C@@H](CO)[C@H](O)[C@@H](O)[C@@H]4O)ccc(O)c3oc2c1	5.6	.	.	0.8	.	1	2.5	.
COc1ccc(S(=O)(=O)Nc2cc(C)c(O)c(S(=O)(=O)c3ccccc3)c2)cc1	-2.7	2.3	2	-0.6	3	0	.	4%
CC(=O)c1cnc2cc(-c3ccccc3)nn2c1C	-1.5	-2.0	1	-0.2	7	2	.	1%
CCOc1ccc(/C=C/c2nc(C#N)c(NCCCOC)o2)cc1	1.4	-3.5	25	-0.1	-1	13	-2.0	.
Cc1ccc2nc(NC(=O)CSCC(=O)OCC(=O)c3ccc(Br)cc3)sc2c1	-1.5	-2.3	?	-4.3	-15	-4	.	-16%
O=C(CSc1nc2ccc([N+](=O)[O-])cc2s1)NCC1CCCO1 (stereo not given)	3.6	-3.5	-2	-0.3	0	4	-0.1	.
CC(C)C1Cc2c(C#N)c(N)sc(=S)c2CO1 (stereo not given)	-1.6	-10	-3	-0.5	0	-1	.	11%
Cc1cc(=O)oc2cc(Oc3ccc([N+](=O)[O-])cc3[N+](=O)[O-])ccc12	-0.5	-0.3	?	0.0	-3	-4	.	.
COC(=O)Cn1ccc2cc(S(=O)(=O)N3CCCCC3)ccc21	-1.6	-0.6	-6	0.1	5	-9	-1.8	.
O=C(Cc1ccccc1)Nc1cccc(N2C(=O)C=CC2=O)c1	-5.7	0.2	-1	-0.2	-62	-8	5.4	13%
CC(C)CNS(=O)(=O)c1ccc(CCC(=O)N2CCOCC2)cc1	0.9	1.4	.	0.0	2	2	.	0%
CS(=O)(=O)Nc1ccc(-c2cn3cccnc3n2)cc1	3.6	-1.4	0	0.0	-1	-3	-0.7	-6%
CCC(C)(C(=O)NC1CCCCC1)N(C)C(=O)c1ccccn1 (stereo not given)	-0.8	3.4	0	0.3	-3	-3	.	-4%
Cn1ncc(C#N)c1NC(=O)c1nn2cccnc2c1Cl	3.2	0.7	2	-0.2	-5	-1	.	17%

# Quoted at random: 4 compounds from above.
Structure	LANA-H2B inh	RanGTP-Impb inh	Calb FLC	Bfl-1 A1 inh	T cruzi inh	Beta cell apopt	AF4-AF9 inh	Vif TR-FRET
CS(=O)(=O)Nc1ccc(-c2cn3cccnc3n2)cc1	3.6	-1.4	0	0.0	-1	-3	-0.7	-6%
Cn1ncc(C#N)c1NC(=O)c1nn2cccnc2c1Cl	3.2	0.7	2	-0.2	-5	-1	.	17%
CC(C)CNS(=O)(=O)c1ccc(CCC(=O)N2CCOCC2)cc1	0.9	1.4	.	0.0	2	2	.	0%
CCC(C)(C(=O)NC1CCCCC1)N(C)C(=O)c1ccccn1 (stereo not given)	-0.8	3.4	0	0.3	-3	-3	.	-4%
